# rRNA inh HTS: selective bacterial rRNA inhibition in E. coli. GFP signal change (wild-type ribosome), % (concentration not given with the values). 350,000 compounds, 1.6% hits. E. coli WT GFP vs humanized-ribosome RFP mutants, fluorescence, 24 h; stronger effect = lower value; DMSO median 0, no signal -100;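 active means significant combined selectivity score with lowered wild-type GFP, culture density cut under 30%, mutant RFP and density less affected; inactive means any of these conditions unmet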; further: one replicate is shown; some compounds called inactive have numbers as strong as hits
# FGF22 binding: binders of recombinant human FGF22 by thermal shift; SYPRO orange fluorescence; percent of sucrose octasulfate shift, DMSO zero; calls only at 9.99 µM; 340,000 compounds, 1.5% hits; AID 651658;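 active means melting point raised past a set limit in the mean and every replicate; three in four hits are not shown here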
# Target sequence (Q9HCT0 whole entry, looked up): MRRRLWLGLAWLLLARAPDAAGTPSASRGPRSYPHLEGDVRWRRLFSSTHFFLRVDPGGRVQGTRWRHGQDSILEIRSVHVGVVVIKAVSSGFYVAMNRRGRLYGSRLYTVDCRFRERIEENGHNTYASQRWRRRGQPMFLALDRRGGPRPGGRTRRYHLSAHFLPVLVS
# Beta apoptosis: beta cell apoptosis inhibition | INS-1E cytokine-induced death, ATP luminescence, 48 h; percent of positive-control rescue, neutral wells zero | protection from apoptosis, % (test concentration not listed) | 300,000 compounds, 0.8% hits;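 active means all replicates at 75% or more, or half of them and the mean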;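 further: 0% = cytokine-treated negative control wells and 100% = positive control rescue; higher means more ATP so stronger rescue from cytokine killing; wells of about 40 µL received 100 nL stock; the first replicate is given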
# A1 inh: inhibitors of the anti-apoptotic protein A1, read as caspase activation | 330,000 compounds, 0.066% hits | caspase activation, % (test concentration not listed) | MEF A1-2A-BIM cells, Caspase-Glo 3/7 luminescence, 3 h; percent of clofoctol response, vehicle zero;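 active means over half of replicate activation scores above 10%, or exactly half above 10 with the replicate mean above 10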;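 further: wells of about 30 µL received 50 nL stock; many hits fall short of the cut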
# T cruzi inh: blocks replication of Trypanosoma cruzi. T. cruzi beta-gal in NIH3T3, luminescence, 90 h. AID 1885. 300,000 compounds, 1.4% hits. inhibition, % (no concentration beside the values);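 active means mean inhibition across valid replicates above about 55%, limit read from the data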;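 further: signal also drops with host cell toxicity which is not excluded here; 0% = plate median of DMSO wells and 100% = zero luminescence signal; higher percent means less beta-gal luminescence so fewer parasites; stock transfer was 50 nL into about 50 µL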
# UCH37 DUB inh: inhibitors of human deubiquitinating enzyme UCH37; Q9Y5K5; purified proteasome/UCH37, Ub-AMC cleavage fluorescence; inhibition, % (concentration not given with the values); 330,000 compounds, 0.33% hits; AID 588478;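 active means mean of two replicates above 20%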;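 further: 0% = compound-free wells with enzyme and 100% = wells lacking proteasome; stock transfer was 100 nL into about 20 µL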
#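 Material: human UCH37 enzyme supplied as purified proteasome complex / Amount: 0.15 nM proteasome as dispensed / Buffer or medium: pH 7.4 Tris-HCl (50 mM) with ovalbumin, ATP-MgCl2, DTT / Times: preincubation 30 min, reaction 25 min, room temperature / Technique: AMC fluorescence from Ub-AMC cleavage, excitation 355 nm, emission 460 nm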
# E coli growth: blocks Escherichia coli growth; AID 1053175; OD600 absorbance (concentration not given with the values); 330,000 compounds, 0.21% hits; OD600, 23 h; stronger effect = lower value;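 active means OD600 absorbance below the run mean of sample wells minus 3.6 SD, in any replicate, cut at about 0.56 in these data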;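 further: stock transfer was 300 nL into about 60 µL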
# AF4-AF9 inh: blocks AF4 peptide binding to human AF9; P42568; AlphaScreen, biotin-AF4 peptide binding to FLAG-AF9; inhibition, % at 10 µM; 350,000 compounds, 0.47% hits;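 active means every replicate reaching a set inhibition limit, whatever the replicate mean, cut at about 25% in these data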;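 further: 0% = plate neutral control median and 100% = total signal loss; the record names both 10 and 1 µM as test concentration; the first replicate is given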
# Target sequence (P42568 whole entry, looked up): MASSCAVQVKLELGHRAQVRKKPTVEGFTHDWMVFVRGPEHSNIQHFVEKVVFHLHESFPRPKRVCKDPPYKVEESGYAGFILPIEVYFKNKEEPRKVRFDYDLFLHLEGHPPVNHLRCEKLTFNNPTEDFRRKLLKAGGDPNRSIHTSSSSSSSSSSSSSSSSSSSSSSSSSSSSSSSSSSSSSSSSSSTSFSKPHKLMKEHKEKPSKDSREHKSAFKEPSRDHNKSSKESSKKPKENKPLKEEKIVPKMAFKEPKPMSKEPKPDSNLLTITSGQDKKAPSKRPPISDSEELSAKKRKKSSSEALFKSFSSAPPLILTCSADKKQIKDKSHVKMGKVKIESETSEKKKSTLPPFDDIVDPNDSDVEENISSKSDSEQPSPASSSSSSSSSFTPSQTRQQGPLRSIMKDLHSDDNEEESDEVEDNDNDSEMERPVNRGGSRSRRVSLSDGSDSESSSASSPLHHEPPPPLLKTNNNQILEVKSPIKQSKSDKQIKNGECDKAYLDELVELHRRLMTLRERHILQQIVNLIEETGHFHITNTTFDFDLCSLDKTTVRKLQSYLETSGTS
# rRNA inh HTS OD600: second read-out of rRNA inh HTS, no call of its own (marks repeat the call); OD600 change, %; measured here: OD600 growth;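 optical density of the mix in the first replicate; 0 = DMSO median and -100 = no signal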
# rRNA inh HTS RFP: also measured in rRNA inh HTS; calls as there; RFP signal change, %; measured here: RFP humanized mutant strains;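 first replicate; 0 = DMSO median and -100 = no signal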
# * hit, by the source's call; i = inactive; / = no result given.
# Every second line gives: E coli growth	Beta apoptosis	AF4-AF9 inh	UCH37 DUB inh	rRNA inh HTS RFP	rRNA inh HTS	rRNA inh HTS OD600	FGF22 binding	T cruzi inh	A1 inh
1	COc1ccccc1NC(=O)c1ccc(C(=O)c2ccccc2)o1
→ /	-2	-1.1	/	-6.7*	-32*	-23*	i	11	-1.1
2	CCCCNC(=S)Nc1cccc(S(=O)(=O)NC2=NCCC2)c1
→ 0.66	-4	-0.6	4.8	-1.2	9	8	i	-13	0.0
3	Cc1ccc(OCC(=O)N2CCN(c3ccc([N+](=O)[O-])c(N4CCOCC4)c3)CC2)cc1
→ 0.7	-4	-6.2	7.8	4.2	-15	-21	/	4	0.3
4	CC(=O)C(Sc1ccc2nnc(-c3ccncc3)n2n1)C(C)=O
→ 0.72	-5	6.9	7.2	-1.2	1	3	i	-5	-0.3
5	O=C(NC1CCN(S(=O)(=O)c2cccc([N+](=O)[O-])c2)CC1)C1CCCCC1
→ 0.7	14	0.1	3.0	3.2	-2	0	/	17	-1.1
6	CCOC(=O)C1CCN(C(=O)CC2(CC(=O)O)CCCC2)CC1
→ 0.7	-9	0.3	3.5	0.8	7	14	i	-9	0.6
7	CC1CCCC(NC(=O)COC(=O)c2cccc(S(=O)(=O)N3CCCCC3)c2)C1C (centres undefined)
→ 0.69	-1	0.5	1.4	0.0	3	7	i	/	-1.6
8	CCOc1ccccc1NC(=O)CCc1nnc2ccc(N3CCC4(CC3)OCCO4)nn12
→ 0.64	0	1.2	0.3	-1.7	1	4	i	-5	0.3
9	CCN1CCN(CC(=O)Nc2ccc(C)cc2C)C(=O)C1=O
→ 0.7	2	4.4	5.7	1.4	2	-6	i	-8	-0.1
10	O=S(=O)(c1ccc(-c2csc(-c3cccnc3)n2)cc1)N1CCOCC1
→ 0.66	3	-0.4	0.0	-2.2	-26	-25	i	15	0.1
11	CNC(=O)CSCc1cnn(-c2ccccc2)c1-n1cccc1
→ 0.7	0	/	4.9	/	/	/	/	-13	0.1
12	O=C(Nc1cc(C(F)(F)F)ccc1-n1cncn1)C1CC1
→ 0.7	-2	-1.3	-0.2	4.7	6	8	i	-5	0.1
13	CC(=O)c1cccc(NC(=O)c2ccc3ccccc3c2)c1
→ 0.62	3	0.0	0.3	-2.9	-23	-14	i	-14	-5.3
14	Cc1c(C(=O)Nc2cccc(N(C)S(C)(=O)=O)c2)cccc1[N+](=O)[O-]
→ 0.63	3	-11	0.3	-2.7	-10	1	i	-6	0.0
15	C=CCN=C1CC(C)(C)CC(=O)/C1=C(/O)CCC(=O)OC
→ 0.72	1	/	2.3	/	/	/	/	-3	-1.0
16	O=C(Nc1nc(-c2ccc(S(=O)(=O)N3CCCCCC3)cc2)cs1)c1ccccc1
→ 0.75	1	/	2.6	/	/	/	/	9	-0.2
17	CCN(c1ccccc1)S(=O)(=O)c1ccc(Cl)c(C(=O)N(CC2CCCO2)C2CCS(=O)(=O)C2)c1 (centres undefined)
→ 0.71	-2	-1.4	1.8	2.2	3	5	i	18	0.2
18	COc1ccc(NC(=O)Cc2cccs2)c(OC)c1
→ 0.68	3	/	1.7	/	/	/	/	-6	-0.2
19	COc1ccccc1N(C(=O)c1snc(C(N)=O)c1N)C(C(=O)NC1CCCC1)c1ccc(N(C)C)cc1 (centres undefined)
→ 0.71	-4	-0.4	3.6	1.2	8	-1	/	20	0.0
20	COc1ccc(C(=O)c2sc(Nc3ccc(NC(C)=O)cc3)nc2C)cc1
→ /	10	-17	/	-0.5	-8	-4	i	6	0.6

# Ordered by molecular weight (low to high): some entries from above.
# Every second line gives: E coli growth	Beta apoptosis	AF4-AF9 inh	UCH37 DUB inh	rRNA inh HTS RFP	rRNA inh HTS	rRNA inh HTS OD600	FGF22 binding	T cruzi inh	A1 inh
18	COc1ccc(NC(=O)Cc2cccs2)c(OC)c1
→ 0.68	3	/	1.7	/	/	/	/	-6	-0.2
15	C=CCN=C1CC(C)(C)CC(=O)/C1=C(/O)CCC(=O)OC
→ 0.72	1	/	2.3	/	/	/	/	-3	-1.0
12	O=C(Nc1cc(C(F)(F)F)ccc1-n1cncn1)C1CC1
→ 0.7	-2	-1.3	-0.2	4.7	6	8	i	-5	0.1
9	CCN1CCN(CC(=O)Nc2ccc(C)cc2C)C(=O)C1=O
→ 0.7	2	4.4	5.7	1.4	2	-6	i	-8	-0.1
14	Cc1c(C(=O)Nc2cccc(N(C)S(C)(=O)=O)c2)cccc1[N+](=O)[O-]
→ 0.63	3	-11	0.3	-2.7	-10	1	i	-6	0.0
10	O=S(=O)(c1ccc(-c2csc(-c3cccnc3)n2)cc1)N1CCOCC1
→ 0.66	3	-0.4	0.0	-2.2	-26	-25	i	15	0.1
16	O=C(Nc1nc(-c2ccc(S(=O)(=O)N3CCCCCC3)cc2)cs1)c1ccccc1
→ 0.75	1	/	2.6	/	/	/	/	9	-0.2
8	CCOc1ccccc1NC(=O)CCc1nnc2ccc(N3CCC4(CC3)OCCO4)nn12
→ 0.64	0	1.2	0.3	-1.7	1	4	i	-5	0.3
19	COc1ccccc1N(C(=O)c1snc(C(N)=O)c1N)C(C(=O)NC1CCCC1)c1ccc(N(C)C)cc1 (centres undefined)
→ 0.71	-4	-0.4	3.6	1.2	8	-1	/	20	0.0
17	CCN(c1ccccc1)S(=O)(=O)c1ccc(Cl)c(C(=O)N(CC2CCCO2)C2CCS(=O)(=O)C2)c1 (centres undefined)
→ 0.71	-2	-1.4	1.8	2.2	3	5	i	18	0.2

# The list goes on.
# Every second line gives: E coli growth	Beta apoptosis	AF4-AF9 inh	UCH37 DUB inh	rRNA inh HTS RFP	rRNA inh HTS	rRNA inh HTS OD600	FGF22 binding	T cruzi inh	A1 inh
21	CC(C)(C)C(=O)Nc1cc2c3c(c1)CCC(=O)N3CCC2
→ 0.71	-4	-2.0	1.8	-3.9	3	-1	i	-2	-0.5
22	NS(=O)(=O)c1ccc(CCNC(=O)c2ccc3nc4ccc(Cl)cc4c(=O)n3c2)cc1
→ 0.61	7	-16	-106	8.1	4	-2	i	/	-0.4
23	Cc1ccc(N2C(=O)CC(NCC3CCCO3)C2=O)cc1 (centres undefined)
→ 0.6	-5	0.0	0.6	-2.3	11	17	i	-6	0.8
24	COCCCNC(=O)c1ccc2c(c1)nc(C)n2-c1cccc(C)c1
→ 0.69	-5	-1.7	2.8	-2.0	-10	-5	i	-5	0.4
25	O=C(CSc1nnc2ccccn12)NC(=O)c1ccccc1Cl
→ 0.66	0	-3.1	-2.1	-1.5	2	13	i	/	0.7
26	C=CCn1c(=N)c(C#N)cc2c(=O)n3ccccc3nc21
→ 0.72	-6	/	-118	/	/	/	/	-1	0.5
27	Oc1ccccc1-c1cncn1Cc1ccccc1
→ 0.64	0	-26	3.1	4.4	-3	-6	i	13	0.3

# Screening results (PubChem BioAssay)

# These rows are one share of the data; rates above refer to the full screens.
